Screening data as filed in PubChem.
TRPV1 potentiator – HTS Assay for Compounds that Act as Potentiators of the Vanilloid Receptor 1; Transient receptor potential cation channel subfamily V member 1 (Homo sapiens), Q8NER1; TRPV1-expressing cells, Fluo-8 calcium influx, capsaicin EC20 potentiation; host cell line not named in the record; control for the full effect not named in the record; AID 540277, 2011; 0.02% of 320,000 active; potentiation, % at 8.33 µM; active means potentiation above 80%; inconclusive means 30% to 80%; inactive means below 30%; note: 0% is about no effect
Target sequence (Q8NER1 whole entry, looked up): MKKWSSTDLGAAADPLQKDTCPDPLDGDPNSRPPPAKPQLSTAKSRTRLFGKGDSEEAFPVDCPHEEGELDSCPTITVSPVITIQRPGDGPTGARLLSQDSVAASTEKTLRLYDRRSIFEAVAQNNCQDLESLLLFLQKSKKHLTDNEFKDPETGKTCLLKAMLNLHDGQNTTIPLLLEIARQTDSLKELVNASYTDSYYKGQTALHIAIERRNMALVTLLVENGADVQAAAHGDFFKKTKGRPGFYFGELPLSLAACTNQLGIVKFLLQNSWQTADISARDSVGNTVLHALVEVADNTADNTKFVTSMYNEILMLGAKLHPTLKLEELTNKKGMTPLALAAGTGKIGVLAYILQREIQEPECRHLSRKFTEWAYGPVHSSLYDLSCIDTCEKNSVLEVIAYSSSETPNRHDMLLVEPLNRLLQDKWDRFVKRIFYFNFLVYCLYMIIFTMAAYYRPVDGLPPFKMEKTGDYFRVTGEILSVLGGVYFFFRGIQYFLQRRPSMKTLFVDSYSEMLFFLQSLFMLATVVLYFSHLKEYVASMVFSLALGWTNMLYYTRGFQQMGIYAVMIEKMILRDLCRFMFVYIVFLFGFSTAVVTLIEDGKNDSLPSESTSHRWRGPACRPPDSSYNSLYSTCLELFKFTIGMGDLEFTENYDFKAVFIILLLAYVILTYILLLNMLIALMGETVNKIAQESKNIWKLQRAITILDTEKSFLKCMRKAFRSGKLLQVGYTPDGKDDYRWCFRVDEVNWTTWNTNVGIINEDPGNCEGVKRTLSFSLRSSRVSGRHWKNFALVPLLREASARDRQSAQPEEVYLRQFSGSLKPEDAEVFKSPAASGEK
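TRPV1-expressing cells were cultured overnight at 35.5C and loaded with Fluo-8 calcium dye for 40 to 90 min at room temperature. After a 10 s baseline, compound was added and calcium influx was read kinetically for 3 min (ex 480/em 520 nm).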
TRPML1 blocker – qHTS for Inhibitors of the Human Mucolipin Transient Receptor Potential 1 (TRPML1); Mucolipin-1 (Homo sapiens), Q9GZU1; TRPML1-inducible cells, Ca2+ dye fluorescence, FDSS; hits give low values; inhibition of EC80 agonist-evoked calcium signal; activity change, negative = inhibition, % (test concentration not listed); 0.02% of 390,000 active; in the data active means activity change below about -50%; inconclusive means about -30% to -50%; inactive means above about -30%;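 note: stimulus is agonist 54-4 at its EC80 concentration; % is set by controls: 0 for no effect and ±100 for the full control effect; compound concentration not given in the record; the text of the record puts the active cut at -80%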
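Tet-induced TRPML1-DL cells loaded with Ca8 no-wash calcium dye were read kinetically on FDSS. Compound addition was followed by EC80 agonist 54-4 (4 uM final); inhibition was read over 110 s.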
D2 potentiator – Beta-Arrestin HTS for Positive Allosteric Modulators of the Human D2 Dopamine Receptor: Potentiators; D(2) dopamine receptor (Homo sapiens), P14416; DiscoveRx D2 beta-arrestin cells, luminescence, 90 min; 100% = 57 uM dopamine signal; potentiation, % (concentration not given with the values); 0.23% of 360,000 active; active = potentiation of 50% or more; inconclusive = 30% to 50%; inactive = 30% or less;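 note: compound concentration not given in the record; tested on top of an EC20 dose of dopamine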
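PathHunter beta-arrestin assay in DiscoveRx D2 cells. Compounds were added with an EC20 of dopamine (50 nM final) for 90 min at 37 deg C. Luminescence was read 1 h after detection reagent, with 57 uM dopamine as the EC100 control.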
CtBP-E1A inh – qHTS Assay for Inhibitors of the CtBP/E1A Interaction | CtBP / adenovirus E1A interaction (AlphaScreen) | AlphaScreen GST-E1A/His-CtBP binding, 1536-well; hits give low values; control for the full effect not named in the record | 0.49% of 340,000 active | activity change, % (test concentration not listed); in the data active means activity change below about -65%; inconclusive means about -30% to -65%; inactive means above about -30%; note: % is set by controls: 0 for no effect and ±100 for the full control effect; compound concentration not given in the record
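AlphaScreen with 125 nM GST-E1A and 125 nM His-CtBP (5X stocks) in Tris pH 8.0, 300 mM NaCl, BSA, Tween 20, TCEP. Compounds preincubated 2 h at 37 deg C, then glutathione donor/nickel acceptor beads added for 1 h at 37 deg C in dark.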
Six1-Eya2 blk – qHTS Assay for Inhibitors of the Six1/Eya2 Interaction. 0.56% of 360,000 active. activity change, % (no concentration beside the values). AID 651725, 2012. AlphaScreen GST-Six1/His-Eya2 binding, biochemical; hits give low values; control for the full effect not named in the record. Homeobox protein SIX1 (Homo sapiens) + Protein phosphatase EYA2 (Homo sapiens), …; in the data active = activity change below about -65%; inconclusive = about -30% to -65%; inactive = above about -30%; note: % is set by controls: 0 for no effect and ±100 for the full control effect; compound concentration not given in the record
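GST-Six1 + His-Eya2 (5X stock: 250/500 nM); Tris pH 8.0, 300 mM NaCl, 0.05% BSA, 0.02% Tween 20; GSH donor/Ni acceptor beads; 1 h 37 °C dark; AlphaScreen readout.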
TRPML1 ag – qHTS for Agonists of the Human Mucolipin Transient Receptor Potential 1 (TRPML1). Mucolipin-1 (Homo sapiens), Q9GZU1. TRPML1-expressing cells, Ca2+ dye fluorescence, FDSS; host cell line not named in the record; reference of the full effect not given here. activation, % (test concentration not listed). 0.12% of 410,000 active; in the data active = activation above about 50%; inconclusive = about 30% to 50%; inactive = below about 30%; note: 0% is about no effect; the text of the record puts the active cut at 80%
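Tetracycline-induced TRPML1-DL cells are seeded and incubated overnight before loading with a no-wash Ca2+ dye and quencher. Agonist activity is taken from the 110 s fluorescence read following compound pin-transfer on an FDSS, before EC80 54-4 challenge.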
Active calls of the source: *; ? = inconclusive; . = no result given; & = joins results of further samples. The order is random; about 0.95% have a hit in one of these screens.

SMILES	TRPV1 potentiator	TRPML1 blocker	D2 potentiator	CtBP-E1A inh	Six1-Eya2 blk	TRPML1 ag
Cc1onc(-c2ccccc2Cl)c1C(=O)Nc1ncn[nH]1	3	10	22	2	3	0.1
COC(=O)c1cccnc1-n1c(=O)c2cccnc2n(Cc2cccc(C(F)(F)F)c2)c1=O	-3	6	6	.	-1	2.4
CCn1cc(C(=O)NCCCN2CCN(C)CC2)c(=O)c2cc(S(=O)(=O)N3CCc4ccccc4C3)ccc21	10	-1	-11	.	2	0.6
COC(=O)C1CCN(C(=O)Cc2ccccc2OC)CC1	5	4	-6	-2	12	0.5
S=C1N(c2ccccc2)C(c2ccccc2)N2CCCN12 (stereo unspecified)	0	25	3	5	6	1.1
CS(=O)(=O)Nc1ccc(C(=O)NCCc2ccccc2)cc1	-16	-9	-26	3	-5	-1.3
CCOC(=O)C1=C(c2ccccc2)NC(=O)NC1c1ccc(O)c(Cl)c1 (stereo unspecified)	?	51	15	-2	1	4.5
CCN(CC)Cc1cc(NC2=NS(=O)(=O)c3ccccc32)ccc1OC(=O)C(C)C	-2	-9	-41	0	1	-0.7
CCC(c1nnc(SCC(=O)Nc2cc(Cl)ccc2C#N)n1C1CCCCC1)N(C)C (stereo unspecified)	-12	21	-8	.	5	0.1
O=[N+]([O-])c1ccc(N2CCN(c3ccccn3)CC2)c(Cl)c1	-5	12	0	4	-15	0.2
Cc1ccc(CC2(C)C(=O)Nc3ccc(OC(F)(F)F)cc32)cc1 (stereo unspecified)	.	.	-1	7	1	-0.9
COc1ccccc1NC(=S)NCCc1ccc(F)cc1	-13	8	-12	-1	0	-0.7
O=C1NC2=C(C(=O)OC2)C(c2ccc(OC(F)(F)F)cc2)N1 (stereo unspecified)	-13	-3	-1	5	9	-0.2
CCc1nc2ccc(C(=O)NCCC(C)C)cn2c1N(CCN(C)C)CC1CC1	.	51	-18	0	10	-0.8
COc1ccc(C(=O)N/C(=C\c2ccc(-c3cccc([N+](=O)[O-])c3)o2)C(=O)NCCCN2CCOCC2)cc1	.	-4	-10	-1	-22	-0.9
O=C(Cn1c(NCCO)nc2ccccc21)NCCc1ccccc1	6	-5	-14	5	-9	-0.9
CNC(=O)Cc1csc2ccc(C)cc12	-7	-17	-4	4	-15	-0.6
COc1cc(OC)c(C2=NOC(C(=O)Nc3c(C)nn(CC(=O)N4CCCC4)c3C)C2)cc1Cl (stereo unspecified)	-3	2	-9	7	?	0.2
O=C(COc1ccccc1)Nc1ccccc1N1CCN(c2ccccc2)CC1	3	7	-15	11	-1	-0.4
COc1ccc(C2CC2/C(=N/O)c2ccccc2)cc1 (stereo unspecified)	-5	-9	-1	0	-1	-0.3
Cc1ccc(CNC(=O)C2CCCN(S(=O)(=O)c3c(C)noc3C)C2)cc1 (stereo unspecified)	-1	7	-3	6	6	0.5
CN1CCN(C2=C(Cl)C(=O)N(c3ccc(Cl)cc3)C2=O)CC1	?	-3	-15	88	21	0.3
CCC(=O)N(Cc1ccco1)c1nc(-c2ccc(OC)cc2)cs1	-3	25	2	1	6	3.5
O=C(O)C1CCCCC1C(=O)NCCc1c[nH]c2ccccc12 (stereo unspecified)	?	-13	-2	3	7	1.4
COc1ccc(N2CCN(C(=O)c3[nH]c4ccc(OC)cc4c3C)CC2)cc1	6	10	-3	-17	-18	1.6
Cc1ccc(S(=O)(=O)N2CCN(C(=O)CN3CCOCC3)C2)cc1	2	2	8	7	8	-0.4
CC(=O)c1ccc(N2CCN(CCC#N)CC2)c(F)c1	5	-2	-14	0	7	0.8
Clc1ccc(-c2nnc(C3CC3)o2)cc1	-9	7	-7	6	20	-0.6
COc1ccccc1NS(=O)(=O)c1ccc(C)c(C(=O)N2CCCC2)c1	6	7	-2	-5	5	0.4
Cn1c(CNc2nc3ccccc3n2CCN2CCCCC2)nc2ccccc21	-9	-4	-39	-10	-21	0.0

Looked up by compound from above:
SMILES	TRPV1 potentiator	TRPML1 blocker	D2 potentiator	CtBP-E1A inh	Six1-Eya2 blk	TRPML1 ag
Cc1ccc(CNC(=O)C2CCCN(S(=O)(=O)c3c(C)noc3C)C2)cc1 (stereo unspecified)	-1	7	-3	6	6	0.5
CN1CCN(C2=C(Cl)C(=O)N(c3ccc(Cl)cc3)C2=O)CC1	?	-3	-15	88	21	0.3
COc1cc(OC)c(C2=NOC(C(=O)Nc3c(C)nn(CC(=O)N4CCCC4)c3C)C2)cc1Cl (stereo unspecified)	-3	2	-9	7	?	0.2

(next part)
SMILES	TRPV1 potentiator	TRPML1 blocker	D2 potentiator	CtBP-E1A inh	Six1-Eya2 blk	TRPML1 ag
CN(Cc1ccccc1)S(=O)(=O)c1ccc(OCC(=O)N2CCOCC2)cc1	-23	-4	3	10	7	0.5
CC(C)N1CCC(N2CCN(Cc3cc(F)ccc3-n3cccn3)CC2CCO)CC1 (stereo unspecified)	3	-10	-12	0	-1	1.4
Cc1ccc(CSc2ncccc2C(=O)O)cc1	4	-15&-8	-13	-7	2	-0.2&0.7
CCOc1ccc(N(C(C)C(=O)N2CCOCC2)S(C)(=O)=O)cc1 (stereo unspecified)	4	35	-8	6	-1	-0.7
Cc1cccc(C(=O)c2ccccc2C(=O)O)c1	4	-10	-13	6	7	0.3
CCN(CC(O)Cn1c2ccccc2c2ccccc21)S(=O)(=O)c1ccc(C)cc1 (stereo unspecified)	2	87	3	-11	4	2.1
COc1ccc2nc(NC(=O)c3ccco3)sc2c1	-6	6	-12	.	9	1.1
COC(C[C@@H]1O[C@H]1[C@H](O)COCc1ccccc1)OC	-14	-12	-13	-2	1	-0.5
CCc1nn(CCCC(=O)NCc2ccccc2Br)c(=O)c2cc3occc3n12	-4	-13&9	-11	.	-11	0.2&1.7
CCOc1ccc(NC(=O)CN(C)S(=O)(=O)c2cnc[nH]2)cc1	3	4&14	-4	.	3	0.0&0.2
CCOC(=O)Cc1cc(=O)n2[nH]cc(-c3ccc(Cl)cc3)c2n1	20	9	7	9	8	-0.6
COCCNC(=O)c1cc2sccc2n1C	-9	-20	-52	.	7	3.2
COc1ccc(-c2ccc(N(C)C)cc2)cc1[C@H]1[C@@H]2C=CCC[C@@]2(C)C(=O)N1Cc1ccccc1	-5	-5	-8	?	?	0.2
CCOC(=O)c1c(NC(=O)C(C)OC(=O)C2=COCCO2)sc2c1CCCC2 (stereo unspecified)	-6	19	4	0	-12	1.9
COc1ccc(-c2oc3cccnc3c2C#CCO)cc1	9	-12	-6	-15	-12	3.5
Cc1ccccc1OCC(=O)N1CCCCCCC1	8	-3	-8	5	2	-1.2
Cc1ccc(C(=O)CCC(=O)Nc2cc(C)ccn2)cc1	-18	8	-5	-5	-5	-0.2
CC1CCN(C(=O)C2CCCN(S(=O)(=O)c3cccc4nsnc34)C2)CC1 (stereo unspecified)	27	1	-6	7	-1	-0.8
COc1cc(OC)c2ccc(=O)oc2c1C(CCN1CCN(c2ccccc2)CC1)c1ccc2c(c1)OCO2 (stereo unspecified)	-5	-1&-7	-13	.	?	1.9&-0.2
CCOC(=O)N1CCC2(CC1)C(C#N)=C(N)Oc1n[nH]c(C)c12	0	3	-5	2	-4	-0.5
O=C(Cc1ccccc1F)NC1CCCN(Cc2ccc(Cl)cc2)C1 (stereo unspecified)	-2	-10	-2	6	-7	1.4
COC(=O)[C@@H]1C[C@H]2CC[C@H](O)C[C@H]2N1Cc1ccc(N2CCN(C)CC2)cc1	15	-5	-9	4	2	-0.3
O[C@H]1C[C@H](c2ccccc2)N(Cc2cccs2)C[C@@H]1n1cc(-c2ccc(F)cc2)nn1	.	3	-3	-9	-11	1.4
O=C(NCCc1csc(-c2ccccc2)n1)c1ccc(Br)o1	7	-2	-10	-9	-17	1.8
Cc1ccc(CNC(=O)C2CCC(=O)N2Cc2ccc(F)cc2)cc1 (stereo unspecified)	6	-8	-5	1	9	0.1
COC(=O)c1sc(NC(=O)c2c(C)noc2C)nc1C	9	-9	-4	5	0	0.4
O=c1c2[nH]c3ccc(F)cc3c2nc2n1CCCS2	3	-28	4	-1	-8	0.3
OC(CCc1ccncc1)c1ccccc1 (stereo unspecified)	18	-25	-8	7	0	0.5
Cc1ccc2oc(C(=O)Nc3ccc(S(=O)(=O)Nc4ncccn4)cc3)c(C)c2c1	13	-2	-8	1	-1	0.5
COc1ccc(NC(=O)CSc2nnc(-c3cccs3)n2N)cc1S(N)(=O)=O	.	2	2	0	5	0.3

Full records, quoted from the list. Values in the order: TRPV1 potentiator | TRPML1 blocker | D2 potentiator | CtBP-E1A inh | Six1-Eya2 blk | TRPML1 ag
Record of `COC(=O)c1sc(NC(=O)c2c(C)noc2C)nc1C` → 9 | -9 | -4 | 5 | 0 | 0.4
Record of `CC1CCN(C(=O)C2CCCN(S(=O)(=O)c3cccc4nsnc34)C2)CC1` (stereo unspecified) → 27 | 1 | -6 | 7 | -1 | -0.8

Additional results follow.
SMILES	TRPV1 potentiator	TRPML1 blocker	D2 potentiator	CtBP-E1A inh	Six1-Eya2 blk	TRPML1 ag
O=C(CN1CCCCCC1)Nc1ccc(Br)cc1	-25	-14	-19	15	3	2.8
O=C(O)CCc1ccc(-c2ccc(Br)cc2)o1	-7	-18	-15	0	7	1.1
Cc1ccnc2nc(C(=O)OCC(=O)c3ccc(Cl)cc3)nn12	-6	-1	-7	.	-1	-0.4
CCC(=O)Nc1c(C)cc(C)cc1Cl	18	10	-33	43	23	0.5
Cc1cccnc1NC(=S)Nc1ncccc1C	2	-9	0	0	1	-0.4
CCOc1ccccc1N1CCN(C2=C(NS(=O)(=O)c3cccs3)C(=O)c3ccccc3C2=O)CC1	8	-1	-27	-76*	-65*	0.6
CC(=O)Nc1cccc(NC(=O)CSc2nccn2Cc2ccccc2)c1	16	2&-11	-11	0	-1	1.1&1.6
CCc1nc2c(c(SC)nn2-c2ccccc2)c(N)c1C(=O)OC	4	-12	0	1	9	2.7
Cc1cccn2c(=O)nc(SCC(=O)N3CCOCC3)nc12	4	-5	-1	7	2	0.7
Cc1ccc2cc(NC(=O)Cc3ccccc3)ccc2n1	4	-7	-4	-1	-7	4.0
O=C(Cn1ccc(NC(=O)OCc2ccccc2)nc1=O)NCC1CCCO1 (stereo unspecified)	14	-10	-6	-9	14	0.2
CC(=O)NNC(=O)c1sc(=S)n(C)c1C	4	-1	-7	1	6	0.5
COCCN(CC(=O)Nc1cccc(C)c1C)C(=O)Cc1cccs1	8	-13	-2	8	1	1.1
O=C(c1ccc2c(=O)n3c(nc2c1)CCCCC3)N1CCN(c2ccc(Cl)cc2)CC1	-6	-5	1	4	-10	0.9
Cc1cc(O)c(C(C)C)cc1NC(=S)Nc1cc(C(C)C)c(O)cc1C	.	0	-33	0	-13	3.7
CCOC(=O)CNC(=O)CSc1nnc(Cn2c(=O)sc3ccccc32)n1-c1ccccc1C	-12	8	-6	8	-1	-0.1
